Screens deposited in PubChem by ICCB-Longwood Screening Facility, Harvard Medical School.
GIV-Gai inh – inhibitors of GIV GBA-motif binding to rat Galpha-i3. P08753. Galpha-i3/FITC-GIV peptide fluorescence polarization, 90 min; active compounds read low; scaled: aluminum fluoride 0%, vehicle 100%. percent of control (FP), % (test concentration not listed). 0.42% of 210,000 active. AID 1224905;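 active means replicate mean at 85% of control or lower, very high polarization wells dropped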;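 further: lower values mean more displacement of the GIV peptide from Galpha-i3; wells of about 15 µL received 100 nL stock; the first replicate is given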
Target sequence (P08753 whole entry, looked up): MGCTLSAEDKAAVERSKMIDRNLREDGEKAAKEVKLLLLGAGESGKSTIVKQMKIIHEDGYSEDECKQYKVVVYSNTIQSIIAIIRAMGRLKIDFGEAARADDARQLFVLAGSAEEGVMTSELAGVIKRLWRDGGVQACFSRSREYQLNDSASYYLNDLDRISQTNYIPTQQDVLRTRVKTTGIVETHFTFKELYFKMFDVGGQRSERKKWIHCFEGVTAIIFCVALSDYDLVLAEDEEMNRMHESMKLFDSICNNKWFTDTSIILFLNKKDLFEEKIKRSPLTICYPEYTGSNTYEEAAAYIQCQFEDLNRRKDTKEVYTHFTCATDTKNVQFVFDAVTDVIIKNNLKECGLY
Sa growth inh – S. aureus growth inhibition. relative growth, % (concentration not given with the values). 0.53% of 170,000 active. AID 720641. S. aureus RN4220 growth, OD600, 20 h, 42 °C; active compounds read low;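 active means growth at 42 °C up to 50% and 20 or more points under that at 30 °C, or under 10% at both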;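 further: 300 nL library stock went into each well; scaled to the means of positive and negative controls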
HCMV UL50-53 inh – disrupts HCMV UL50-UL53 complex binding | inhibition, % (no concentration beside the values) | HTRF UL50-UL53 interaction, normalized percent inhibition | 0.15% of 190,000 active | AID 1918969;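 active means both replicates at 50% or more, plus weaker picks with an unusually low signal ratio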;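 further: stock transfer was 100 nL into about 20 µL; 0% = negative control wells and 100% = wells with untagged competitor protein; inactives centre near -12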
Sa growth inh second temp – further read-out of Sa growth inh, marked with its call; relative growth, %; measured here: growth at 30 °C;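 optical density after 20 h as mean of two plates; 100% = untreated growth and lower means inhibition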
An asterisk follows results filed as active; nt = not tested or not shown; & = joins results of further samples.

SMILES	GIV-Gai inh	Sa growth inh	Sa growth inh second temp	HCMV UL50-53 inh
COCCNc1cc(C)nc2c(-c3ccc(F)cc3)cnn12	104.1	nt	nt	0.2
c1cncc(CNc2nc3ccccc3n3cnnc23)c1	105.6	93.6	92.1	nt
Cc1[nH]c2ccccc2c1C(=O)COC(=O)c1ccncc1	nt	107.0	96.3	-11.5
CCOC(=O)c1c(C)c(-c2ccccc2)n(CC(=O)NC2CCCC2)c1C	105.0	112.9	97.2	-5.7
Cc1c(Cl)cccc1NC(=O)CCN1C(=O)c2ccccc2Sc2ncccc21	99.2	94.8	84.4	nt
O=C(NCCn1c(C(F)(F)F)nc2cccnc21)Nc1cccc(Cl)c1	113.6	nt	nt	-12.4
CCCC(=O)C1=C(N2CCN(C3=C(C(=O)CCC)C(=O)CC(C)(C)C3)CC2)CC(C)(C)CC1=O	103.1	102.0	78.0	-24.9
CCOc1ccc(NC(=O)CSc2ncc(S(=O)(=O)c3ccc(F)c(C)c3)c(=O)[nH]2)cc1	104.6	114.4	93.9	-9.9
CC1CCCCN1C(=O)c1cc(=O)c2ccccc2o1 (stereo not given)	nt	104.7	93.0	-2.2
CC1(C)CC2(CC(C)(C)N1)OC(=O)N(Cc1ccccn1)C2(C)O (stereo not given)	nt	91.3	87.0	-8.1
COC(=O)C1(c2ccccc2)NC(c2ccccc2C)C2C(=O)N(C)C(=O)C21 (stereo not given)	103.9	73.4	87.1	-25.2
COc1ccc(-c2noc(CC(=O)Nc3ccc(Br)cc3C)n2)cc1	107.0	114.6	97.8	nt
Cc1ccc(C)c(NC(=O)CN(Cc2ccccc2)S(=O)(=O)c2ccc3nc(C)sc3c2)c1	95.4	94.2	77.2	nt
Cc1ccc(Nc2c(-c3ccc(Cl)cc3)nc3sccn23)c(C)c1	102.5	100.5	80.4	2.8
COc1ccc(NC(=O)CCc2c(C)nn(-c3ccc(N4CCCC4)nn3)c2C)cc1Cl	103.5	76.0	92.3	nt
COc1ccc(CCNC(=O)C2CCN(C(=O)c3sccc3-n3cccc3)CC2)cc1OC	100.5	nt	nt	-27.4
c1ccc(-c2nc(COc3ncnc4sccc34)cs2)cc1	nt	107.5	93.1	-26.2
Cc1cc(C)c(C#N)c(=N)o1	nt	88.8	87.3	-4.9
CCOC(=O)c1oc2c(CN3CCN(C)CC3)c(O)ccc2c(=O)c1-c1ccc(OC)c(OC)c1	101.5	92.4	83.2	-33.1
COCCCNC(=O)c1sc2nc(C)c(C(=O)Nc3ccc(C)cc3C)c(-c3ccccc3Cl)c2c1N	102.7	96.3	80.0	-18.5
O=C(NC(=O)C(F)(F)F)NC1(C(F)(F)F)OCCO1	nt	80.5	82.5	-30.5
CCOc1cc(C(=O)CCC(=O)NCc2ccco2)ccc1O	nt	99.2	95.3	-1.4
O=C1/C(=C/c2ccc(-c3cc(Cl)ccc3Cl)o2)NC(=S)N1c1ccccc1	115.6	nt	nt	-30.9
CC(C)c1ccc(NC(=O)c2ccc3c(c2)CCCN3S(C)(=O)=O)cc1	103.0	109.7	94.0	-11.5
O=C(CN1C(=O)CCC1=O)Nc1nc2ccccc2s1	98.4	97.5	72.9	-13.1

Additional entries.
SMILES	GIV-Gai inh	Sa growth inh	Sa growth inh second temp	HCMV UL50-53 inh
N#CC(c1ccccc1)c1cccc(Cl)n1 (stereo not given)	100.9	nt	nt	-11.0
CCC(Cc1ccccc1)NC(=O)c1ccco1 (stereo not given)	101.9	85.5	88.1	0.7
COC(=O)CSc1nc(-c2ccccc2)nc2c1Cc1cc(Br)ccc1O2	100.4	93.0	88.5	nt
N#Cc1ccc2c(c1)nc1c3cccc4cccc(c(=O)n21)c43	152.9	114.0	107.9	-19.4
CC(Oc1ccc(Cl)cc1)c1ccc(C#N)c(=O)[nH]1 (stereo not given)	98.5	nt	nt	-17.5
CCOC(=O)N1CCN(C(=O)Cc2cccs2)CC1	109.6	106.5	82.7	-18.0
CCN(Cc1ccccc1)C(=O)c1oc(=O)c2ccccc2c1-c1ccc(C)cc1	104.1	91.4	75.1	nt
O=S(=O)(c1ccccc1)c1ccc2c(c1)Sc1ccccc1N2	nt	97.1	97.7	-1.2
Cc1cc(C)cc(-n2ccn3cnnc3c2=O)c1	101.2	90.2	84.6	9.3
OCc1cn(CC(O)COc2ccccc2Cl)c2ccccc12 (stereo not given)	101.7	77.7	65.6	-6.3
COc1ccc(Nc2c3c(nc4nncn24)CCC3)cc1Cl	99.7	103.1	86.7	2.4
COC(=O)CSc1nnc2[nH]c(=O)cc(C)n12	106.3	102.1	89.7	-5.0
CCCC(O)c1nc2ccccc2n1CCCOc1ccccc1C (stereo not given)	103.2	nt	nt	-25.7
CC1=C(C(=O)OCC(C)C)C(c2cc3c(cc2[N+](=O)[O-])OCO3)C2=C(CC(c3ccccc3)CC2=O)N1 (stereo not given)	103.5	nt	nt	-28.5
Cc1ccc(NC(=O)COc2ncnc3ccccc23)cc1C	nt	97.3	87.4	-36.5
COc1ccc2c(C)nc(/N=C(/N)NC(=O)c3ccccc3)nc2c1	105.1	90.7	80.9	-14.9
CCOC(=O)Nc1oc2ccccc2c(=O)c1CN1CCOCC1	106.0	108.7	72.6	nt
CCNC(=O)C1CCCc2c1[nH]c1ccc(Cl)cc21 (stereo not given)	102.6&100.9	113.2	66.4	-11.3
CCOc1cc(CNC(=O)C2CCN(c3nc4ccccc4[nH]3)CC2)cc(OCC)c1OCC	104.5	80.0	88.7	nt
Cc1nc(SC(C)C(=O)NC2CC2)n(C2CCCC2)c1C (stereo not given)	nt	109.8	95.6	3.2
N#Cc1cn(CC(=O)Nc2ccc(Br)cc2)c2ccccc12	100.4	101.9	97.7	-40.1
Cc1ccc(COc2ccc3c(c2)OCO3)cc1	nt	89.3	102.2	-2.6
CC(C)(C)c1ccc(C(=O)/C=C2\NC(=O)CS2)cc1	116.2	107.0	88.2	10.2
CCc1nc2ccccc2n1CCCCOc1ccc(C)cc1	111.0	99.1	74.5	16.2
COc1ccc(Cn2c(CCC(=O)NCc3cccc(Cl)c3)nc3cccnc32)cc1	106.5	105.6	103.0	1.5

Only GIV-Gai inh, Sa growth inh and HCMV UL50-53 inh, for seven of the compounds above:
SMILES	GIV-Gai inh	Sa growth inh	HCMV UL50-53 inh
COC(=O)C1(c2ccccc2)NC(c2ccccc2C)C2C(=O)N(C)C(=O)C21 (stereo not given)	103.9	73.4	-25.2
COc1ccc(-c2noc(CC(=O)Nc3ccc(Br)cc3C)n2)cc1	107.0	114.6	nt
Cc1ccc(C)c(NC(=O)CN(Cc2ccccc2)S(=O)(=O)c2ccc3nc(C)sc3c2)c1	95.4	94.2	nt
Cc1ccc(Nc2c(-c3ccc(Cl)cc3)nc3sccn23)c(C)c1	102.5	100.5	2.8
COc1ccc(NC(=O)CCc2c(C)nn(-c3ccc(N4CCCC4)nn3)c2C)cc1Cl	103.5	76.0	nt
COc1ccc(CCNC(=O)C2CCN(C(=O)c3sccc3-n3cccc3)CC2)cc1OC	100.5	nt	-27.4
c1ccc(-c2nc(COc3ncnc4sccc34)cs2)cc1	nt	107.5	-26.2

Grouped by structure, the entries above containing a furan ring, fused or not (3)
SMILES	GIV-Gai inh	Sa growth inh	Sa growth inh second temp	HCMV UL50-53 inh
CCOc1cc(C(=O)CCC(=O)NCc2ccco2)ccc1O	nt	99.2	95.3	-1.4
O=C1/C(=C/c2ccc(-c3cc(Cl)ccc3Cl)o2)NC(=S)N1c1ccccc1	115.6	nt	nt	-30.9
CCC(Cc1ccccc1)NC(=O)c1ccco1 (stereo not given)	101.9	85.5	88.1	0.7

Next results:
SMILES	GIV-Gai inh	Sa growth inh	Sa growth inh second temp	HCMV UL50-53 inh
CN(C)c1nc2ncnc(N)c2[nH]1	nt	99.5	89.1	0.2
CC1CCc2c(nc3nc[nH]n3c2=O)C1 (stereo not given)	101.5	100.6	92.7	-28.7
COc1ccc(C(CNC(=O)c2cccc([N+](=O)[O-])c2)N2CCOCC2)cc1 (stereo not given)	100.6	109.9	85.4	-80.5
O=C1C2C(C(=O)N1CCO)C1C=CC2C12CC2 (stereo not given)	103.0	124.0	87.5	-12.0
c1ccc2c(c1)nc(N1CCOCC1)c1ccccc12	102.8	140.7	92.2	-34.9
CCOc1ccc2oc(C)c(C(=O)Nc3ccc(Cl)cc3)c2c1	107.0	nt	nt	-9.0
O=C(CN1CCSc2ccccc21)Nc1ccc2c(c1)OCCO2	nt	84.1	94.4	-28.7
O=C(Nc1ccccc1)N1CCC(N2CCN(Cc3ccc(F)cc3)C(=O)C2=O)CC1	99.1	nt	nt	-14.6
Cc1ccc(-n2ncc3c(=S)nc[nH]c32)cc1	98.8&135.0	106.2	93.8	-0.1&-15.2
FC(F)(F)c1ccc(-c2nnc(-c3ccc4nsnc4c3)o2)cc1	109.3	103.9	93.8	53.0
N#CC(C#N)=C1C=CN(c2ccc(Br)cc2)C=C1	nt	102.3	95.3	25.3
O=C1CC(NC(=O)N2CCn3cccc3C2c2ccccc2F)CN1c1ccccc1 (stereo not given)	104.2	82.0	82.9	-36.7
Cc1cc(N2C(=O)c3ccccc3C2=O)no1	100.3	98.2	89.9	-38.9
N#CC(c1ccc(Cl)cc1)c1ncc(C(F)(F)F)cc1Cl (stereo not given)	103.8	nt	nt	3.2
O=C(NCCC1=CCCCC1)c1ccc(Cl)cc1	nt	98.7	84.9	-18.4
Cc1nc(/C(N)=N/O)c(C(F)(F)F)o1	103.8	93.2	91.8	-24.0
COC(=O)C(NC(=O)Nc1ccccc1)C(C)C (stereo not given)	nt	92.8	86.1	-17.6
Cc1ccc(-c2nc(C(=O)Nc3nc4ccccc4s3)c3n2CCCCC3)cc1	105.0	nt	nt	-24.4
COC(=O)C1=NN(c2c(C)cccc2Cl)C(=O)C1	102.5	96.7	87.2	-52.7
COc1cccc(-c2nc(C(N)=O)c3[nH]c(=O)n(CC4CCCO4)c3n2)c1OC (stereo not given)	101.2	nt	nt	-18.9
CC(C)n1nc(C(=O)OCc2cc(=O)n3c4c(sc3n2)CCCC4)c2ccccc2c1=O	nt	105.7	99.2	-16.8
N#CCCn1cc(C(=O)CN2C(=O)NC(c3ccccc3)(c3ccccc3)C2=O)c2ccccc21	nt	139.8	101.4	-7.5
CCc1ccccc1NC(=O)c1nn(-c2ccc(C)cc2)c(=O)c2c1c1ccccc1n2C	106.4	104.5	106.2	13.0
CCc1c(C)nc2nncn2c1NCc1ccccc1	103.5	93.7	90.8	-35.2
O=C(Nc1ccc(-n2cnnn2)cc1)C1=Cc2ccccc2OC=C1	103.2	nt	nt	-19.1

More records follow.
SMILES	GIV-Gai inh	Sa growth inh	Sa growth inh second temp	HCMV UL50-53 inh
CCN(CC)c1ccc(CNc2ccc3c(c2)ncn3C)cc1	102.1	59.9	56.3	0.9
COc1cc(OC)c(NC(=O)c2cnc(N(C)C)nc2C)cc1Cl	102.6	nt	nt	-25.8
CCCN1C(=O)c2ccc(C(=O)Nc3cc(OC)c(OC)cc3C(=O)O)cc2C1=O	105.7	102.6	94.6	-27.6
NC(=O)NO	100.1	96.4	83.6	-15.2&-7.3&-31.7
CCOC(=O)N1CCN(C(=O)Cn2cnc3c(nnn3-c3cccc(Cl)c3)c2=O)CC1	104.4	104.9	97.1	7.2
CC(C)(CO)NC(=S)NC1CC1	103.7	98.4	92.2	-22.2
Cc1cccc(OCC(=O)Nc2ccc3nc(Nc4cccc(Cl)c4)cc(C)c3c2)c1	103.6	111.0	83.0	nt
COCCn1nnc2cc(S(=O)(=O)N3CCCCC3C(=O)NCCC3=CCCCC3)ccc21 (stereo not given)	109.9	nt	nt	-20.0
Cc1c(Cl)cccc1NC(=O)CCS(=O)(=O)c1ccc(Br)s1	103.9	98.4	89.3	-6.6
CC(C)(C)C1CCC(C(=O)OCC(=O)N2CCOCC2)CC1 (stereo not given)	nt	105.5	86.8	-37.7
CCN(Cc1ccc(Cl)s1)Cn1c(CO)nc2ccccc21	nt	108.6	97.9	-15.2
Cc1ccc(N(C)S(=O)(=O)c2ccc3c(c2)NC(=O)CC(=O)N3)cc1C	99.9	nt	nt	-22.2
CCCN(Cc1cc2cccc(C)c2[nH]c1=O)C(=O)c1cc(OC)c(OC)c(OC)c1	97.8	95.0	83.4	-7.4
COc1cccc(C(=O)COc2ccc3ccc(=O)oc3c2)c1	98.1	147.1	65.3	-11.7
Cc1cc(C)nc(-n2[nH]c3nccc(-c4ccc(Cl)cc4)c3c2=O)n1	98.2	nt	nt	-35.7
COc1ccc(-c2nc3sccn3c2Nc2c(C)cccc2C)cc1	100.2	nt	nt	-23.5
NS(=O)(=O)c1ccc(NC(=O)/C=C/c2ccccc2)cc1	nt	96.9	79.4	-36.2
CCOc1ccc(C(=O)Nc2ccc3c(c2)CCCN3S(=O)(=O)c2ccc(C)cc2)cc1	98.4	100.0	84.5	nt
O=C(CC(=O)NCc1ccc(Cl)cc1)NCc1ccc(Cl)cc1	nt	102.3	88.8	-38.4
Cc1ccc(-c2cnc(NCc3ccc(C(F)(F)F)cc3)n2C)cc1	110.2	80.2	33.0	-12.2
CCOc1ccc(/C=C/c2nc(C#N)c(NCCc3ccccc3)o2)cc1	98.2	96.1	87.3	-37.3
O=C(NCCCn1c(-c2ccncc2)nc2cccnc21)Nc1ccc(Cl)cc1	109.8	nt	nt	6.4
CCOc1ccccc1NC(=O)C(C)CC (stereo not given)	100.0	110.3	71.7	-7.8
C=CCNc1nc(Nc2ccc(-c3nc4ccccc4o3)cc2)nc(N2CCOCC2)n1	107.0	110.5	63.3	nt
CC(=O)OCC(=O)[C@@]1(OC(C)=O)[C@@H](C)CC2C3C[C@H](F)C4=CC(=O)C=C[C@]4(C)[C@@]3(F)[C@@H](O)C[C@@]21C (stereo not given in full)	nt	100.7	89.9	-31.0
